Autofluor counter – counter-screen for toxin protease inhibitors: compound fluorescence | compound autofluorescence counterscreen, microsphere flow cytometry; active compounds read high | fluorescence intensity (concentration not given with the values) | 3.1% of 360,000 active | AID 624483;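 active = at least 3 SD above the mean of all compounds, about 16000 in these data; inconclusive = too few beads counted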;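 also: 100 nL of 1 mM stock went into each well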
BJeLR lethal – BJeLR cell viability loss. BJeLR (HRASV12) viability, CellTiter-Glo ATP luminescence, 48 h; reference of the scale not given here. inhibition, % (no concentration beside the values). 0.17% of 300,000 active. AID 1554;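 active = replicate mean above 50%; inconclusive = above 50% but judged a plate artefact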;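 also: 50 nL library stock added to about 25 µL; numbers are from one replicate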
Sa ugtP lethal – compounds lethal to S. aureus RN4220 ugtP deletion mutant. OD600 growth, 16 h; some inactives read as strong as hits. growth inhibition, % (no concentration beside the values). 0.54% of 330,000 active;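 active = z-score under -3 and OD600 up to 0.15 on both plates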;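 also: plate controls were untreated wells for no effect and antibiotic for full effect; wells of about 80 µL received 100 nL stock; the first replicate is given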
Mtb hypoxia inh – inhibitors of hypoxia-regulated fluorescent reporter in Mycobacterium tuberculosis; M. tuberculosis hypoxia-regulated fluorescent reporter, fluorescence; fluorescence inhibition, % (no concentration beside the values); 0.1% of 300,000 active;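 active = 35 to 45% if threefold the growth effect, above 45% if 1.5-fold the growth effect; inactive = the rest, general growth blockers included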;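 also: wells of about 50 µL received 100 nL stock; 0% = vehicle wells and 100% = reference inhibitor wells; whole bacteria with a GFP reporter of the hypoxia response; strong numbers were not always called active; many hits fall short of the cut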
RN4220 kill – S. aureus RN4220 growth inhibition. OD600, 16 h. inhibition, % (concentration not given with the values). 0.33% of 330,000 active. AID 1259311;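 active = z-score of -3 or lower and OD600 up to 0.18 on both plates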;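 also: plate controls were untreated cells for no effect and reference antibiotic for full effect; stock transfer was 100 nL into about 80 µL; one replicate is shown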
PrP 5UTR inh – inhibition of PrP 5' UTR reporter expression; inhibition, % (concentration not given with the values); 0.35% of 340,000 active; AID 488862; cell-based PrP 5' UTR mRNA reporter, plate reader;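 active = every replicate at 50% or more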;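 also: 0 = median of the neutral control wells; tested in H4 reporter cells; numbers are from one replicate; inactives centre near -14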
Mtb hypoxia inh growth – recorded beside Mtb hypoxia inh, whose call it bears; growth inhibition, %; measured here: M. tuberculosis growth (absorbance);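 0% = vehicle and 100% = reference antibiotic; read after six days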
* = called active by the depositor; ? = inconclusive; / = no result given. An unsorted share of the library; 4% or so of the library scored in one or more.

SMILES	Autofluor counter	BJeLR lethal	Sa ugtP lethal	Mtb hypoxia inh	Mtb hypoxia inh growth	RN4220 kill	PrP 5UTR inh
CCc1cc(=O)oc2cc(C)cc(OCC(=O)NC3CCN(Cc4ccccc4)CC3)c12	4557	2	7	6	-1	-1.7	-11
CC[C@@]1(C(=O)OC)N[C@H](CN(C)S(=O)(=O)c2ccccc2)[C@@H]2C(=O)N(Cc3ccccc3)C(=O)[C@@H]21	2956	/	1	-6	-5	2.5	-3
COc1ccc(CCN(C)S(=O)(=O)c2ccc(Cl)nc2)cc1OC	3721	3	3	12	5	3.1	-7
NC(=O)C1CCCN(C(=O)CCCNC(=O)c2ccc(Cl)cc2)C1 (centres undefined)	5964	-10	5	-1	-7	3.1	2
CCCC(=O)NCn1nnc(-c2ccc(Cl)cc2)n1	3826	-1	0	6	-1	3.7	-30
COc1cc2[nH]c(=S)n(C3CCCC3)c(=O)c2cc1OC	23713*	-19	-8	3	16	-5.6	-61
Cc1ccc(SCC(=O)NN=C2CCN(C)CC2)cc1	4085	-2	-2	5	15	3.8	-22
O=C(Nc1nccs1)c1ccc[nH]c1=O	3243	-1	10	-4	0	4.3	-16
CCCn1c(SCC(=O)N2CCc3ccccc32)n[nH]c1=O	3539	/	0	14	11	0.8	-31
C=CCN(C(=O)CCS(=O)(=O)c1cccc2nsnc12)c1ccccc1	6328	-1	3	-7	3	4.8	-10
COc1ccc(CNS(=O)(=O)NCc2ccc(C)cc2)cc1OC	2491	8	-3	-10	1	1.5	-19
CC(=O)NC(c1ccc2ccccc2c1)c1ccc2cccnc2c1O (centres undefined)	3532	35	/	/	/	/	41
COC(=O)/C(C#N)=C\c1c(OC)[nH]c2ccccc12	4293	-1	-10	-20	-10	6.5	-12
Cc1cc(OCCCCNC(C)C)cc(C(C)C)c1	7064	5	16	13	2	1.4	-3
Cc1ccccc1NC(=O)c1ccc(CN2CCc3ccccc3C2)cc1	3306	4	-4	15	7	-16	-20
CCOc1ccc(S(=O)(=O)NCCC(=O)NCC(c2ccco2)N2CCCCC2)cc1 (centres undefined)	6728	/	4	6	3	1.5	0
O=C(NCc1ccncc1)C(=O)NCc1ccncc1	3203	-1	2	6	4	7.9	-24
C#CCOCCOCCOCCNc1nc(N2CCOCC2)nc(N2CCN(C(=O)C(CCC(=O)O)n3cc(C(N)Cc4ccc(O)cc4)nn3)CC2)n1 (centres undefined)	/	/	-2	-3	-7	9.2	/
Cc1ccc(S(=O)(=O)N(C)C)cc1NC(=O)C(C)OC(=O)c1cc[n+]([O-])cc1 (centres undefined)	/	/	6	5	6	3.2	-7
COc1ccccc1NC(=O)CN(c1ccccc1)S(=O)(=O)c1ccccc1	?	0	6	4	0	4.1	-2
COc1ccc(CCNc2c([N+](=O)[O-])c(=O)oc3ccccc23)cc1OC	9033	-1	-2	14	9	4.4	-24
Fc1ccc(-c2cnc[nH]2)cc1	2183	2	11	/	/	-4.2	-21
Cc1cc(C(=O)CSc2n[nH]c(N)n2)c(C)n1-c1cccc(F)c1	7451	15	32	1	4	6.5	-68
Cc1cc(OCC(=O)N2CCC(C(=O)O)CC2)c2c(C)cc(=O)oc2c1	4147	0	-13	/	/	3.1	-22
COc1ccc(-c2ncccc2O)cc1	2533	-1	3	11	10	-0.3	-44
CC1(NC(=S)Nc2ccc(NC(=S)NC3(C)CCS(=O)(=O)C3)cc2)CCS(=O)(=O)C1 (centres undefined)	5552	-8	2	-7	-4	2.6	/
Cc1cc(C)nc(/N=C2\NC(=O)CC(C(=O)O)N2c2ccc(Cl)cc2)n1 (centres undefined)	5243	10	1	4	0	2.6	-7
CC(C(=O)Nc1ccc(O)c(C(=O)O)c1)N1C(=O)/C(=C/c2cccs2)SC1=S (centres undefined)	5859	0	-17	2	4	-0.5	-1
O=c1cc(O)nc(SCc2ccccc2)n1-c1ccc(Cl)cc1	4448	16	6	9	0	10	-35
COc1cccc(NC(=O)c2cc3ccccc3o/c2=N\O)c1	3490	-6	/	/	/	/	-20
O=C(Nc1ccc(Cl)c(S(=O)(=O)N2CCOCC2)c1)c1cccs1	3687	/	-9	-2	5	-2.6	-36
CC(C)[C@H]1C(=O)Nc2ccccc2N1C(=O)N[C@@H](Cc1ccccc1)C(=O)N[C@@H](C(=O)O)c1ccccc1	4303	-1	1	/	/	6.2	-11
N=C1c2ccccc2CN1NC(=O)COc1ccc(Cl)cc1	3428	/	8	20	8	-1.1	-31
CC(O)(CS(=O)(=O)Cc1ccccc1)c1ccccc1 (centres undefined)	3669	0	10	-1	2	2.1	-24
O=C(CCc1ccc(O)cc1)c1c(O)cc(O)cc1OC1OC(CO)C(O)C(O)C1O (centres undefined)	/	/	-2	2	5	5.0	/
CC(C)N(C)CCOC(=O)C1COc2ccccc2O1 (centres undefined)	4261	0	0	-6	5	1.3	3
O=C(c1cccc(-n2cccc2)c1)N1CCN(S(=O)(=O)c2ccccc2)CC1	?	0	4	2	-3	3.7	-20
CCN1C(=O)C2C(c3ccc(C)cc3)N3C(=O)N(c4ccccc4)C(=O)[C@@]3(C)C2C1=O (some centres undefined)	/	/	4	1	6	6.1	/
CC(NO)/C(=N\O)c1cccs1 (centres undefined)	10642	1	/	/	/	/	-18
O=C(Cc1cnn(-c2ccccc2)c1)c1ccc(O)c(O)c1O	?	-17	-11	4	-6	8.2	-46

Next section, starting with the last six of the part before.
SMILES	Autofluor counter	BJeLR lethal	Sa ugtP lethal	Mtb hypoxia inh	Mtb hypoxia inh growth	RN4220 kill	PrP 5UTR inh
O=C(CCc1ccc(O)cc1)c1c(O)cc(O)cc1OC1OC(CO)C(O)C(O)C1O (centres undefined)	/	/	-2	2	5	5.0	/
CC(C)N(C)CCOC(=O)C1COc2ccccc2O1 (centres undefined)	4261	0	0	-6	5	1.3	3
O=C(c1cccc(-n2cccc2)c1)N1CCN(S(=O)(=O)c2ccccc2)CC1	?	0	4	2	-3	3.7	-20
CCN1C(=O)C2C(c3ccc(C)cc3)N3C(=O)N(c4ccccc4)C(=O)[C@@]3(C)C2C1=O (some centres undefined)	/	/	4	1	6	6.1	/
CC(NO)/C(=N\O)c1cccs1 (centres undefined)	10642	1	/	/	/	/	-18
O=C(Cc1cnn(-c2ccccc2)c1)c1ccc(O)c(O)c1O	?	-17	-11	4	-6	8.2	-46
O=C(Cn1c(NCCO)nc2ccccc21)NCC(F)(F)F	3717	5	2	3	-5	6.5	-19
O=C(O)c1cc(C(=O)O)cc(N2C(=O)CSC2=S)c1	5817	-9	2	-8	-4	-0.3	-9
COC(=O)/C=c1/sc2n(c1=O)CCN=2	4418	5	/	/	/	/	-11
O=C(CN1C(=O)NC2(CCCC2)C1=O)OCCOc1cccc(Cl)c1	/	11	1	-6	-2	0.8	-19
COc1ccc(C2Nc3ccccc3C(=O)N2c2ccc(C)cc2)cc1COc1ccccn1 (centres undefined)	2011	6	3	12	1	2.9	-90
CC1=C(C(=O)Nc2ccccc2C(=O)N2CCC(C)CC2)SCCO1	5411	4	3	0	6	1.3	-12
O=S(=O)(Nc1cccc(-n2cnnn2)c1)c1cc(Cl)ccc1Cl	5674	8	0	12	-8	8.6	-21
CC(C)NC(=O)COC(=O)c1ccc(S(=O)(=O)N2CCCC2)cc1	5002	-1	-1	3	-4	2.8	-16
COc1ccc(/C=C/C(=O)c2cc3c(cc2N)OCO3)cc1	3951	5	/	/	/	/	-51
Cc1ccccc1-n1c(=O)cc(NCc2ccc3c(c2)OCO3)[nH]c1=O	13416	-8	-2	3	9	1.1	/
COc1ccc(OC)c(NC(=O)COC(=O)/C=C/c2c(C)nn(C3CCS(=O)(=O)C3)c2Cl)c1 (centres undefined)	2790	8	7	/	/	2.0	-22
Cc1ccccc1C(=O)NN=Cc1ccccn1	/	/	-1	5	0	3.2	/
CCN(C(=O)CSc1nc(-c2cccs2)nc2ccccc12)C1CCS(=O)(=O)C1 (centres undefined)	2937	/	5	25	8	-2.3	-20
CC(=O)c1c(C)nn(C(=O)N2CCOCC2)c1C	3564	-5	-8	4	9	-16	-10
O=c1/c(=C/c2ccccn2)sc2n1CN(c1ccccc1)CN=2	4035	-7	/	/	/	/	-11
CN(CC(=O)NCC1COc2ccccc2O1)S(=O)(=O)c1ccc(Cl)cc1 (centres undefined)	3906	/	11	8	0	4.8	-19
Cc1ccc(C)c(Cn2nnc3c(=O)[nH]c(C4CCCN(S(=O)(=O)Cc5ccccc5)C4)nc32)c1 (centres undefined)	3350	-8	-3	2	-1	4.0	-20
COc1ccc(NC(=O)N(C)CC2Oc3ccc(NC(=O)NC4CCCCC4)cc3C(=O)N(C(C)CO)CC2C)cc1 (centres undefined)	/	/	-4	10	6	3.3	/
O=C1COC(c2ccccc2)C2CCCCN12 (centres undefined)	8973	8	8	-1	-4	3.6	-13
CCCCNS(=O)(=O)CCNCc1ccccc1OC	3548	/	1	-8	1	2.4	61*
O=C1CCCC(O)=C1N=Nc1cccc(C(=O)O)c1	3713	6	-1	7	15	1.4	-3
Cc1ccc(C(=O)NCCn2ccc3ccccc32)cc1[N+](=O)[O-]	4905	-4	-7	-2	1	-2.4	-21
Cc1cccc(C(=O)OCc2cc(=O)oc3c(C)c(C)ccc23)c1O	2986	-1	4	5	-3	3.2	-38
COc1ccc(N2CCOCC2)c(NC(=O)COc2cccc(C)c2)c1	5620	1	14	13	11	3.3	-15
COc1ccc(OC)c(N(CC(=O)Nc2ccccc2C(=O)NCc2ccco2)S(C)(=O)=O)c1	8017	-2	5	15	2	1.3	-6
COc1cc(/C=N/NC(=O)CC#N)cc(Br)c1O	4431	-1	/	/	/	/	-62
CCOC(=O)c1c(NC(=O)C2CCCO2)sc(C(=O)OC(C)(C)C)c1C (centres undefined)	2979	1	1	/	/	-1.3	-8
O=S(=O)(c1ccccc1)c1nc(-c2cccs2)oc1NCCCn1ccnc1	5011	7	-2	/	/	4.5	-8
CC(C)Oc1nc(-c2ccccc2O)nc2ccccc12	8049	6	19	-2	-6	-4.0	15
COc1ccc(OC)c(C(=O)c2ccc([N+](=O)[O-])cc2)c1	3568	/	-2	5	3	10	-21
FC(F)Oc1ccc(/C=N/c2c(-c3ccc(OC(F)F)cc3)nc3n2CCS3)cc1	3474	5	/	/	/	/	-13
O=C(c1cccc([N+](=O)[O-])c1)N1CC2C3C=CC(C3)C2C1 (centres undefined)	4636	6	-1	12	17	6.3	-4
COc1ccc2cc3c(N)nn(C(=O)c4ccc(F)cc4)c3nc2c1	3649	1	-2	0	2	4.5	15
COc1ccc(NC2=CC(c3cccc(OC)c3)N(c3ccc(OC)cc3)C2=O)cc1 (centres undefined)	2085	-15	-2	10	4	3.3	-8
Cc1nc2sccc2c(=O)n1-c1cccc(Cl)c1	10096	1	6	6	3	3.1	-11
COc1ccc(C2CC=C(C(=O)O)C(c3ccc(F)cc3)N2S(=O)(=O)c2ccc(C)cc2)cc1OC (centres undefined)	/	/	2	8	7	4.4	/
CSc1cccc(NC(=O)C2CCCN(S(=O)(=O)c3cnc[nH]3)C2)c1 (centres undefined)	6036	/	8	/	/	4.6	-14
Clc1ccc(C2CC(c3cccs3)n3ncnc3N2)cc1Cl (centres undefined)	5626	-3	5	/	/	2.5	-6
COc1cccc(OC)c1C(=O)NC(=S)NNC(=O)[C@H]1C[C@@H]1c1ccccc1	3901	-15	-6	4	2	17	-38
COc1cccc(NC(=O)CCN2C(=O)c3ccccc3S2(=O)=O)c1	11247	-7	4	2	3	4.3	-31
CCC(C)C1CN(C(C)CN2CCCC2CN2C(N)=NCC2Cc2ccccc2)C(=N)N1CCCC1CCCC1 (centres undefined)	/	/	100*	/	/	100*	/
CCC(C)NCCOCCSc1ccc(Cl)cc1 (centres undefined)	?	-5	13	3	-2	5.4	-11
COc1ccc(N2CCN(C(=O)CCNC(=O)Cn3ccc4ccccc4c3=O)CC2)cc1	4689	-2	0	9	11	2.6	-5
CC(C)(C)C1CCC(=O)N(CCC#N)CC1 (centres undefined)	3508	7	3	5	10	3.8	-4
Cn1nc(C(=O)OCc2ccccc2F)c2ccccc2c1=O	4076	-35	8	-6	4	11	-5

Screening results (PubChem BioAssay)
